Rce1 inh: yeast Rce1p protease inhibitors, primary screen, biochemical, fluorescence, cell-free homogeneous; actives 0.27% (n = 290,000); AID 2563, 2010; yeast membranes, quenched prenylated peptide cleavage fluorescence; calls only;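 active means fall in fluorescence gain of 50% or more versus controls, with final raw signal at or below 3038400; inconclusive means same 50% fall but final raw signal above 3038400; inactive means fall in fluorescence gain under 50%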;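 further: plate controls were neutral control wells for no effect and wells lacking membranes for full effect; tested at 10 µM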
Target sequence (Q03530 whole entry, looked up): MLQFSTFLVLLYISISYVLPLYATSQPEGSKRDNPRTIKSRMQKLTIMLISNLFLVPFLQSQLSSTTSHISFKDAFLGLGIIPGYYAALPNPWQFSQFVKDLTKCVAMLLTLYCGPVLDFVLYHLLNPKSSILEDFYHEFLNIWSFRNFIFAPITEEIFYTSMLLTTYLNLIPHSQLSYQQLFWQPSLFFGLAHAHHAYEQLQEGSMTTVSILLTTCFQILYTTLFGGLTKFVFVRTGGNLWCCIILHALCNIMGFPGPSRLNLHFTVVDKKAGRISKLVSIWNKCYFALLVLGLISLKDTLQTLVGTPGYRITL
HIV Env fusion: inhibitors of HIV-1 Env-driven cell-cell fusion, primary screen, HeLa-JRFL effector, CEM21 target cells, luciferase; actives 1.1% (n = 360,000); inhibition, % at 12.3 µM;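 active means mean replicate inhibition score of at least 50 and every replicate individually at or above 50; inconclusive means only one of the two criteria met; inactive means mean below 50 and not all replicates reaching 50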;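 further: 0% = plate neutral controls and 100% = maraviroc near 300 nM; one replicate is shown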
eIF4H inh: human eIF4H binding inhibitors, primary screen, translation initiation inhibitor project, biochemical, uHTS, fluorescence polarization; eIF4H fluorescence polarization binding assay; inhibition, % at 35 µM; actives 0.94% (n = 290,000); AID 2012, 2009;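 active means 50% or more with normal probe brightness, or confirmed in later tests; inconclusive means above 50% with abnormal brightness, or retests that disagree; inactive means below 50% or failed in later tests; about a fifth of its hits are not listed in these tables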;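 further: calls also rest on retests at 20 µM and on dose response follow-up; 0% = protein and probe with vehicle and 100% = probe without protein; strong numbers were not always called active; many hits fall short of the cut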
MT1-MMP act inh: blockers of MT1-MMP proenzyme processing, primary screen, HT1080 RFP-PRO-GFP cells, GFP/RFP fluorescence; actives 0.061% (n = 360,000); Matrix metalloproteinase-14 (Homo sapiens), P50281; GFP/RFP ratio change, % at 20 µM; GFP/RFP ratio fluorescence, overnight; percent of plate control window, DMSO zero;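 active means GFP/RFP ratio change of at least 30% with cell ATP level not reduced by more than half and red fluorescence within 50% of control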; further: strong numbers were not always called active
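Compound: 20 µM single dose, 1% DMSO / System: HT1080 RFP-PRO-GFP cells / Controls: DMSO and RFP-L50D-GFP cell wells / Read-out basis: GFP/RFP fluorescence ratio / Schedule: overnight compound exposure at 37 °C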
CSC inhib: cancer stem cell viability inhibitors, primary screen, luminescence. cancer stem cell-like cells viability. actives 1.1% (n = 300,000). inhibition, % at 7.5 µM;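 active means mean at 75% or more and at least half the replicates too; inconclusive means mean and replicates disagree; tested in HMLE shEcad cells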;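 further: 0% = median of negative and 100% = median of positive control wells; the first replicate is given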
PABP polyA inh: PABP poly(A) RNA binding inhibitors, primary screen, biochemical, fluorescence polarization, uHTS; inhibition, % at 35 µM; actives 1% (n = 290,000);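 active means 50% or more with normal probe brightness, or confirmed in later tests; inconclusive means above 50% with abnormal brightness, or retests that disagree; inactive means below 50% or failed in later tests; about a fifth of its hits are not listed in these tables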;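 further: calls also rest on retests at 20 µM and on dose response follow-up; controls were probe without protein and protein plus probe with vehicle; some compounds called inactive have numbers as strong as hits; many hits fall short of the cut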
Target sequence (P11940 whole entry, looked up): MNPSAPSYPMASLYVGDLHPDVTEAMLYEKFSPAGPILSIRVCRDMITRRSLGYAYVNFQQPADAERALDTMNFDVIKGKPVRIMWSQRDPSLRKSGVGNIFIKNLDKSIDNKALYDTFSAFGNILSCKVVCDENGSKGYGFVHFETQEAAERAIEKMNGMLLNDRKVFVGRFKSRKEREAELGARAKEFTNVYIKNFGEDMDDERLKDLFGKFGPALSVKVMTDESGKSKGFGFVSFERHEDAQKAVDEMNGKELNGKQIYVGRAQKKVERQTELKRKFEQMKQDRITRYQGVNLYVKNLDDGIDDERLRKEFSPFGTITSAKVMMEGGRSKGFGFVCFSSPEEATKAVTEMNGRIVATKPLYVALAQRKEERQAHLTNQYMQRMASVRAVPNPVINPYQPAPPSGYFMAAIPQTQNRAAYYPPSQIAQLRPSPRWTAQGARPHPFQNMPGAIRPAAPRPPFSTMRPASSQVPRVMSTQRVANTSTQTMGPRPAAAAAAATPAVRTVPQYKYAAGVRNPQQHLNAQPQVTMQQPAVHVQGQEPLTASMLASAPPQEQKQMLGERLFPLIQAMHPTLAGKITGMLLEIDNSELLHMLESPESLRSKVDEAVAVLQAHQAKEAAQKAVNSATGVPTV
Yeast UUG start: modulators of yeast start codon fidelity, primary screen, whole organism, S. cerevisiae, single point, plate reader; S. cerevisiae UUG-firefly luciferase reporter, luminescence/redox ratio; activity score, % at 18.7 µM; actives 0.13% (n = 350,000); AID 602363, 2012;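 active means replicate mean at a twofold rise or more, about +100% in these data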;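 further: firefly luciferase made from a UUG start codon reports start codon fidelity; reporter light over untreated wells divided by growth signal over untreated wells; some hits fall short of that in this replicate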
eIF4H inh retest: further read-out of eIF4H inh, marked with its call; inhibition, %; compound at 20 µM; confirmation average;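 mean of two retest wells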
PABP polyA inh retest: also measured in PABP polyA inh; calls as there; inhibition, %; compound at 20 µM; confirmation repeats;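 mean of two retest wells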
MT1-MMP act inh RFP: recorded beside MT1-MMP act inh, whose call it bears; RFP signal change, %; measured here: RFP expression control read;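 0 = vehicle wells; hits needed this value within 50% of zero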
* marks the source's active call; other numbers are inactive results; i = inactive; ? = inconclusive; / = not tested or not shown; & = joins results of further samples.

SMILES | Rce1 inh | HIV Env fusion | eIF4H inh | MT1-MMP act inh | MT1-MMP act inh RFP | CSC inhib | PABP polyA inh | Yeast UUG start | others
CN1CC[C@@]2(C)c3cc(O)ccc3N(C)[C@@H]12 | / | 2 | / | -3&-5 | 2&-3 | / | / | -15&-5
Cc1ccc(/C=C2/C(=O)NC(=O)N(CC3CCCO3)C2=O)s1 (configuration not stated) | i | -31 | -31 | 2 | 3 | -8 | -8 | /
CC(C(=O)Nc1ccc(Br)cc1C(=O)c1ccccc1)N1CCCCC1 (configuration not stated) | i | -22 | -13 | 4 | 2 | -18 | -5 | -17
COC(=O)C1=C(c2ccc(F)cc2OCc2ccccc2)C[C@@H]2CC[C@H]1N2C(=O)N1CCC(O)(c2ccc(Cl)cc2)CC1 | / | -2 | / | -3 | -15 | / | / | -23
CC(Cc1ccccc1)NC(=O)c1ccc(N)cc1 (configuration not stated) | i | -68 | 4 | -2 | 1 | -8 | 1 | -8
COC(=O)C1=C(c2ccccc2)C[C@@H]2CC[C@H]1N2C(=O)NC1CC1 | i | 4 | / | -2 | 1 | -6 | / | -17
CCCCC(=O)N/N=C/c1c(O)n(-c2cccc3ccccc23)c(=O)[nH]c1=O | i | -34 | 6 | -2 | 3 | -2 | -17 | /
CN1C(=O)C(=Cc2ccc(N3CCOCC3)o2)C(=O)N(C)C1=O | i | -33 | ? | -26 | 7 | -6 | -6 | /
CC(=O)c1cn(CC(=O)NCCc2c[nH]c3ccccc23)c2ccccc12 | i | ? | 17 | 5 | -30 | 9 | -11 | -11
COc1cc2ccc(=O)oc2c2ccoc12 | i | -103 | -1 | 0 | 3 | -3 | 3 | -23
Cc1cc(C=C2C(=O)NC(=S)NC2=O)c(C)n1-c1ccc2c(c1)OCO2 | i | / | 92 | -9 | 2 | 53 | 8.9* | / | eIF4H inh retest=38;PABP polyA inh retest=67*
Cc1nc2cc(C(F)(F)F)ccc2n1C1CCN(Cc2nnnn2CCc2ccccc2)CC1 | i | / | 0 | 1 | -9 | 0 | -5 | -8
O=C(COC(=O)Cc1ccccc1)Nc1cc(S(=O)(=O)N2CCCCC2)ccc1Cl | i | / | / | -2 | -2 | -12 | / | /
Cc1c(Cl)cccc1NC(=S)N1CC2CC(C1)c1cccc(=O)n1C2 (configuration not stated) | i | / | 4 | -1 | -1 | 2 | 20 | /
O=C(C1CC(=O)N(C2CCCC2)C1)N1CCC2(CC1)OCCO2 (configuration not stated) | i | -55 | -8 | 4 | 5 | / | 14 | -15
CN1CC2=CC(O)CC3Oc4c(O)ccc(c4[C@]23C)C1 (some centres not stated) | i | / | / | -2 | 4 | -5 | / | -17
COc1cc(/C=C/[N+](=O)[O-])ccc1O | i | -36 | 12 | 1 | 0 | 1 | 10 | -13
C[C@]12CCC3C(CC[C@H]4C[C@@H](O)CC[C@]34C)C1C/C(=N/O)[C@@H]2O (some centres not stated) | / | -15 | / | -4 | 2 | -12 | / | -16
O=C(Nc1ccccc1OC(=O)N1CCOCC1)N1CCOCC1 | i | / | -2 | -2 | 1 | 4 | 0 | -18
COc1ccc(C(c2nnnn2C2CCCC2)N2CCC3(CC2)C(=O)NCN3c2ccccc2)cc1 (configuration not stated) | / | -33 | / | 3 | -6 | / | / | -5
COc1cccc(C(c2nnnn2-c2ccc3c(c2)OCCO3)N2CCC3(CC2)C(=O)NCN3c2ccccc2)c1OC (configuration not stated) | / | -82 | / | 0 | -3 | / | / | -7
CCCCn1c(=O)c(C(=O)Nc2ccccc2F)c(O)c2ccccc21 | i | -15 | -8 | -8 | -10 | 9 | -14 | -1
Cn1c(O)c(Cc2cccc(Cl)c2Cl)c(=O)n(C)c1=O | i | -4 | 2 | 0 | -2 | -16 | -3 | -11
C/C(CC(c1ccccc1)c1c(O)c2ccccc2oc1=O)=N\NC(N)=S (configuration not stated) | i | / | 8 | -1 | -2 | 4 | -5 | -38
CN(Cc1ccccc1)C(=O)CN1CCCC1=O | i | -9 | -9 | 0 | 0 | -2 | -7 | -1
CCN1CCN(Cc2nnnn2C(C)(C)C)CC1 | i | / | -7 | / | / | 1 | 16 | /
O=C(Nc1ccc(Br)cc1)N1C[C@H]2C[C@@H](C1)c1cccc(=O)n1C2 | / | / | -10 | -2 | 2 | -8 | -5 | -11
COc1ccc(OC)c(N2C(=O)CC(=O)NC2=O)c1 | i | 1 | 32 | 4 | 1 | -10 | -5 | -8
CC(C)(C)c1ccc(C(=O)C2CCCN(C3CCC3)C2)cc1 (configuration not stated) | i | 7 | 0 | 0 | 4 | 17 | -15 | -4
COc1ccccc1CNCCc1ccc(F)cc1 | i | 1 | 21 | 3 | 5 | 2 | -8 | -16
Cc1ccc(-n2c(C)cc(/C=C3\C(=O)NC(=O)N(C)C3=O)c2C)cc1C | i | -1 | 84 | -1 | -1 | -19 | -2 | / | eIF4H inh retest=1;PABP polyA inh retest=4
NC(Cc1nc2ccccc2[nH]1)c1ccc(Cl)cc1 (configuration not stated) | i | -360 | -2 | 2 | 0 | 12 | 1 | -40
Cc1ccc(Cn2nc(C)c(C=O)c2Cl)cc1 | i | 18 | -5 | 1 | -1 | -6 | 0 | /
CC(=O)O[C@@H]1/C=C/[C@](C)(O)C[C@@H](C)C/C=C/[C@H]2[C@@H]3O[C@]3(C)[C@@H](C)[C@H]3[C@H](Cc4ccccc4)NC(=O)[C@@]312 | i | / | / | 12 | 16 | 50 | / | -20
O=C(N/N=C/c1c(O)n(CCc2ccccc2)c(=O)[nH]c1=O)c1ccccc1 | i | 1 | 29 | -17 | 6 | 3 | -2 | -21
COc1ccc(C(=O)C2CCCN(Cc3ccon3)C2)c(OC)c1 (configuration not stated) | i | 5 | -7 | 0 | -2 | -5 | -12 | -13
COc1ccc(-c2ccc3c(c2)CN(CC(C)C)Cc2cnnn2-3)cc1 | / | 10 | / | 4 | -2 | / | / | -9
COCCNC(=O)N1[C@H]2CC[C@@H]1C(C(=O)OC)=C(c1ccc(OC)c(OC)c1)C2 | / | -14 | / | 0 | 4 | -13 | / | -6
CC(C)OC(=O)C1C(=O)NC2(C)CC1c1ccccc1O2 (configuration not stated) | i | -17 | -8 | 0 | 5 | -6 | 9 | -7
COc1ccc2[nH]cc(CCN(C)C)c2c1 | i | -7 | 4 | 3 | 3 | -21 | 9 | -8

Ten compounds already listed, sorted by molar mass, ascending:
SMILES | Rce1 inh | HIV Env fusion | eIF4H inh | MT1-MMP act inh | MT1-MMP act inh RFP | CSC inhib | PABP polyA inh | Yeast UUG start | others
COc1ccc2[nH]cc(CCN(C)C)c2c1 | i | -7 | 4 | 3 | 3 | -21 | 9 | -8
CN(Cc1ccccc1)C(=O)CN1CCCC1=O | i | -9 | -9 | 0 | 0 | -2 | -7 | -1
Cc1ccc(Cn2nc(C)c(C=O)c2Cl)cc1 | i | 18 | -5 | 1 | -1 | -6 | 0 | /
CCN1CCN(Cc2nnnn2C(C)(C)C)CC1 | i | / | -7 | / | / | 1 | 16 | /
COc1ccccc1CNCCc1ccc(F)cc1 | i | 1 | 21 | 3 | 5 | 2 | -8 | -16
NC(Cc1nc2ccccc2[nH]1)c1ccc(Cl)cc1 (configuration not stated) | i | -360 | -2 | 2 | 0 | 12 | 1 | -40
CC(C)(C)c1ccc(C(=O)C2CCCN(C3CCC3)C2)cc1 (configuration not stated) | i | 7 | 0 | 0 | 4 | 17 | -15 | -4
COc1ccc(-c2ccc3c(c2)CN(CC(C)C)Cc2cnnn2-3)cc1 | / | 10 | / | 4 | -2 | / | / | -9
O=C(N/N=C/c1c(O)n(CCc2ccccc2)c(=O)[nH]c1=O)c1ccccc1 | i | 1 | 29 | -17 | 6 | 3 | -2 | -21
CC(=O)O[C@@H]1/C=C/[C@](C)(O)C[C@@H](C)C/C=C/[C@H]2[C@@H]3O[C@]3(C)[C@@H](C)[C@H]3[C@H](Cc4ccccc4)NC(=O)[C@@]312 | i | / | / | 12 | 16 | 50 | / | -20

(cont.)
SMILES | Rce1 inh | HIV Env fusion | eIF4H inh | MT1-MMP act inh | MT1-MMP act inh RFP | CSC inhib | PABP polyA inh | Yeast UUG start | others
Cc1noc(C)c1CC(=O)N1CCCC(N2CCN(c3ccccc3F)CC2)C1 (configuration not stated) | i | -4 | -10 | -3 | -3 | -3 | -2 | -2
O=C1CC(=O)N(c2ccccc2)C(=O)N1c1ccccc1 | i | -17 | ? | -2 | 11 | 0 | ? | -12
CC1CCCC(C)N1/N=C/c1c[nH]c2ccc(Br)cc12 (configuration not stated) | i | 12 | -4 | -7 | -2 | / | -2 | /
CCN1C[C@]2(C)CC[C@H](OC)[C@]34C2[C@H](OC(C)=O)[C@@]2(OCO[C@@]25C[C@H](OC)[C@H]2C[C@]3(O)C5[C@H]2OC)[C@@H]14 | i | 4 | -6 | -3 | 3 | 5 | 3 | -15
O=C1NC(=O)N(c2ccc3c(c2)OCO3)C(=O)/C1=C/c1ccc(N2CCCCC2)o1 | i | / | ? | -68 | 7 | 16 | ? | 16
CCC(=NCc1cccnc1)c1c(O)n(-c2ccc(Cl)cc2)c(=O)[nH]c1=O | i | -9 | 7 | 0 | 1 | -8 | -1 | /
CCN1CCN(Cc2ccccc2C)CC1 | i | -18 | 3 | -2 | 1 | / | 8 | -3
CCCCn1c(O)c(C(C)=NCc2ccc(F)cc2)c(=O)[nH]c1=O | i | -24 | -3 | 3 | -7 | 9 | 0 | -18
OCC12CO[C@@H]3c4ccccc4[C@H](OC1)N32 (some centres not stated) | i | / | -9 | 6 | 3 | / | 0 | -9
CC(C)[C@]12CC(=O)[C@H](C)[C@H]1C2 | / | / | / | 0 | 5 | 1 | / | -4
O=C(CN1C(=O)CN=C(c2ccccc2Cl)c2cc(Cl)ccc21)NCc1ccco1 | i | / | -10 | 1 | -3 | -3 | -12 | 24
C[N+]12CN3CN(CN(C3)C1)C2 | i | -131 | 2 | -2 | -2 | -16 | 44 | -17
COC(=O)C1=CO[C@@H](C)[C@@H]2CN3CC[C@]4(C(=O)Nc5ccccc54)[C@@H]3C[C@H]12 | i | -8 | 4 | 0 | 3 | 2 | 5 | -12
Cc1ccc(C(=O)C2CN(C)CC2C(=O)c2ccc(C)cc2)cc1 (configuration not stated) | i | / | -12 | 0 | -2 | 13 | 12 | -10
CC(C)(C)P(=O)(NCc1ccccc1)c1ccccc1 (configuration not stated) | i | 15 | 2 | 5 | 2 | -5 | 1 | -9
C[C@]12CCC3C(CC[C@H]4C[C@H](N)CC[C@]34C)C1CC[C@H]2O (some centres not stated) | i | -2 | -2 | -2 | -1 | 16 | 10 | -6
COc1ccc(-n2nnnc2C(c2cccs2)N2CCC(n3c(=O)[nH]c4ccccc43)CC2)cc1 (configuration not stated) | / | -5 | / | -11 | -3 | / | / | -11

This is a subset. The share of hits here may be higher or lower than overall.
